Source: PubChem (several laboratories)
Mtb hypoxia inh: inhibitors of hypoxia-regulated fluorescent reporter in Mycobacterium tuberculosis | M. tuberculosis hypoxia-regulated fluorescent reporter, fluorescence | fluorescence inhibition, % (concentration not given with the values) | 300,000 tested, 0.1% active | AID 1159583;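 active = 35 to 45% if threefold the growth effect, above 45% if 1.5-fold the growth effect; inactive = the rest, general growth blockers included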;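 note: wells of about 50 µL received 100 nL stock; 0% = vehicle wells and 100% = reference inhibitor wells; whole bacteria with a GFP reporter of the hypoxia response; strong numbers were not always called active; many hits fall short of the cut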
Sa RN4220 lethal: S. aureus RN4220 growth inhibition; OD600, 16 h; inhibition, % (no concentration beside the values); 330,000 tested, 0.33% active;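 active = z-score of -3 or lower and OD600 up to 0.18 on both plates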;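 note: plate controls were untreated cells for no effect and reference antibiotic for full effect; stock transfer was 100 nL into about 80 µL; one replicate is shown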
PrP 5UTR inh: suppresses PrP 5' UTR mRNA reporter expression | cell-based PrP 5' UTR mRNA reporter, plate reader | inhibition, % (test concentration not listed) | 340,000 tested, 0.35% active | AID 488862;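 active = every replicate at 50% or more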;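 note: 0 = median of the neutral control wells; tested in H4 reporter cells; numbers are from one replicate; inactives centre near -14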
Autofluor counter: flagged as autofluorescent in microsphere protease counterscreen. compound autofluorescence counterscreen, microsphere flow cytometry; stronger effect = higher value. fluorescence intensity (test concentration not listed). AID 624483. 360,000 tested, 3.1% active;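 active = at least 3 SD above the mean of all compounds, about 16000 in these data; inconclusive = too few beads counted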;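 note: 100 nL of 1 mM stock went into each well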
ugtP null kill: compounds lethal to S. aureus RN4220 ugtP deletion mutant | OD600 growth, 16 h; some inactives read as strong as hits | growth inhibition, % (concentration not given with the values) | 330,000 tested, 0.54% active;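 active = z-score under -3 and OD600 up to 0.15 on both plates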;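 note: plate controls were untreated wells for no effect and antibiotic for full effect; wells of about 80 µL received 100 nL stock; the first replicate is given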
BJeLR lethal: BJeLR cell viability loss; BJeLR (HRASV12) viability, CellTiter-Glo ATP luminescence, 48 h; reference of the scale not given here; inhibition, % (no concentration beside the values); 300,000 tested, 0.17% active; AID 1554;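 active = replicate mean above 50%; inconclusive = above 50% but judged a plate artefact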;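 note: 50 nL library stock added to about 25 µL; numbers are from one replicate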
Mtb hypoxia inh growth: second read-out of Mtb hypoxia inh, no call of its own (marks repeat the call); growth inhibition, %; measured here: M. tuberculosis growth (absorbance);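 0% = vehicle and 100% = reference antibiotic; read after six days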
* marks the source's active call; other numbers are inactive results; u = inconclusive; x = not tested or not shown; & = joins results of further samples.

SMILES	Mtb hypoxia inh	Mtb hypoxia inh growth	Sa RN4220 lethal	PrP 5UTR inh	Autofluor counter	ugtP null kill	BJeLR lethal
CCOC(=O)C1C(=O)C=C(c2ccc(OC)cc2)CC1c1ccco1 (stereo not drawn)	x	x	1.1	-38	2302	2	4
COc1ccc(CC(=O)Oc2cc(C)ccc2C)cc1	-1	-5	2.3	-32	4114	6	-10
CCCN(C(=O)COC(=O)Cn1c(=O)oc2ccccc21)c1c(N)n(Cc2ccccc2)c(=O)[nH]c1=O	8	11	-3.4	-16	6878	-1	2
Cc1ccc(/C=C2\SC(N)=NC2=O)s1	6	2	4.5	-12	7320	1	-9
CC1CCN(C(=O)CSc2nnc3ccccn23)CC1	3	-10	3.0	-30	x	2	x
C/C(=N\Nc1ccc(C(=O)O)cc1)c1ccc(Cl)s1	x	x	x	-60	3645	x	-1
CCOC(=O)/C(=C\c1ccc(OC(F)F)cc1)C1=Nn2c(nnc2-c2ccc(Cl)cc2)SC1	5	4	24	-6	2029	-2	20
CCn1c(SCc2nc(-c3cccs3)no2)nnc1-c1c[nH]c2ccccc12	7	7	3.5	-83	3193	-17	-3
Nc1ccc(-c2nc3ccccc3[nH]2)cc1	x	x	0.7	-6	6269	-1	8
CC(NC(=O)COC(=O)C1CC1C)c1ccccc1 (stereo not drawn)	6	9	-0.2	-27	3984	0	x
CC(=O)Nc1ccc(N(C(=O)c2cnccn2)C(C(=O)NC2CCCCC2)c2ccc(F)cc2)cc1 (stereo not drawn)	-13	-1	0.2	-17	3630	8	6
Cc1nn(-c2ccccc2)c2sc(C(=O)OCn3nnc4ccccc4c3=O)cc12	10	2	11	-22	6926	-11	5
Brc1cccc(-c2nnc(SCc3nc4ccccc4[nH]3)o2)c1	x	x	x	-26	2420	x	-6
CSc1ncccc1C(=O)OCC(=O)c1cc(C)n(C)c1C	13	12	-1.2	-101	8726	0	x
CCOC(=O)CN(C)Cc1cn[nH]c1-c1ccc2cc(OC)ccc2c1	11	12	0.6	-31	3599	13	-6
O=C(NCCc1cccs1)C1CCC(=O)N(CCc2cccc(F)c2)C1 (stereo not drawn)	9	-4	0.9	-7	5415	2	-6
CCc1cc2c(N[C@@H](Cc3c[nH]c4ccccc34)C(=O)O)ncnc2s1	-4	2	4.7	-16	2456	4	-3
CCn1c(=O)cc(SCC(=O)Nc2ccc3c(c2)OCCO3)c2ccccc21	9	5	6.4	-17	20714*	-5	-6
CCN1CCN(Cc2ccc(C(=O)Nc3ccc(C)c(NCc4cnc(NC(=O)OC)cn4)c3)cc2C(F)(F)F)CC1	-2	17	2.3	-19	3111&4024	-13	7
CCN(CC)C(=O)CSc1nnc(COc2ccccc2)n1N	-5	11	3.2	-9	2046	0	3
CCOc1ccc(C(=O)N/N=C/c2ccc(-c3ccc(S(=O)(=O)Nc4ncccn4)cc3)o2)cc1	x	x	x	-17	22776*	x	14
CC(=O)N1c2ccc(S(=O)(=O)N3CCC(C(=O)NCc4ccc(N(C)C)cc4)CC3)cc2CC1C (stereo not drawn)	0	-8	-0.4	-4	6189	4	4
COc1ccc(NC(=O)C2CC(=O)n3c(nc4ccccc43)N2)cc1 (stereo not drawn)	9	0	1.3	-8	4445	3	-2
CCCCC1(CC)COP(=O)(OCC(Cl)(Cl)Cl)OC1 (stereo not drawn)	18	14	0.0	-23	3051	1	x
O=c1[nH]c(NNC(=S)NCc2ccccc2)nc2c1C1(CCCCC1)Cc1ccccc1-2	7	-2	7.8	-16	1986	72	-1

Continued:
SMILES	Mtb hypoxia inh	Mtb hypoxia inh growth	Sa RN4220 lethal	PrP 5UTR inh	Autofluor counter	ugtP null kill	BJeLR lethal
Cc1cc(C(=O)N/N=C/c2ccc(-c3ccc([N+](=O)[O-])cc3C)o2)n[nH]1	x	x	x	1	6994	x	-7
c1ccc(-c2noc(CC3CCCCC3)n2)cc1	x	x	6.5	-81	6314	23	-1
COc1ccc(N=CC2=C(O)CC(C)(C)CC2=O)cc1OC	5	5	1.9	-15	3504	2	3
O=C(COC(=O)C1(c2ccc(F)cc2)CCCC1)NC1CC1	9	3	6.6	-19	17844*	-4	-9
Cc1ccc(CC2C(=O)N(c3ccccc3)C(=O)C2C)cc1 (stereo not drawn)	4	11	-1.6	-7	3626	-1	-11
COC(=O)[C@@H]1C[C@H]2CC[C@H](O)C[C@H]2N1Cc1ccc(C(C)(C)C)cc1	x	x	x	-12	3568	x	-10
Cc1ccc(OCC(=O)c2cc(C)n(Cc3ccco3)c2C)c([N+](=O)[O-])n1	4	7	6.2	-12	4829	-2	6
Cc1cc(=O)[nH]c(SCC(=O)Nc2cccc(S(=O)(=O)N3CCOCC3)c2)n1	-3	2	2.1	-41	3642	1	x
CCOc1cc(-c2sc(Nc3ccccc3)n[n+]2-c2ccc(F)cc2)ccc1OC	-10	9	3.7	-2	3195	5	-5
CN(CC(=O)Nc1ccc(N2CCOCC2)cc1)C(=O)CCc1ccccc1Cl	4	8	-0.6	3	x	-3	-13
CCC1CCc2c(sc(NC(=O)CSc3nc(-c4ccco4)cc(C(F)(F)F)n3)c2C#N)C1 (stereo not drawn)	-1	-6	-2.0	-49	5383	-18	-18
COc1ccccc1N1C(=O)CC(Sc2ccccc2N)C1=O (stereo not drawn)	x	x	x	0	2904	x	-1
CC(C)[C@H](NC(=O)c1ccccc1F)C(=O)NCc1ccc(S(N)(=O)=O)cc1	2	10	1.3	-14	5900	3	-4
CC(C)(C)Nc1nc2nonc2nc1NC(C)(C)C	1	0	-1.9	-23	5916	-22	-1
CN(C(=O)c1cccc(NC(=O)Cc2ccc(NC(=O)C3CCCN(C(=O)CCc4ccccc4)C3)cc2)c1)C1CC1 (stereo not drawn)	-3	7	5.0	-26	3726	5	x
Cc1nc2nc(CCc3ccccc3)nn2c(C)c1Cl	4	10	5.0	x	9302	1	-5
Cn1cnnc1SCC(=O)NC1CCCN(Cc2ccccc2F)C1 (stereo not drawn)	7	-1	0.5	-11	6645	1	-4
Cc1c(N)cccc1[N+](=O)[O-]	10	10	5.3	-20	5748	4	x
Cc1ccc(S(=O)(=O)N2CCC(C(N)=O)CC2)c(C)c1C	8	14	3.2	-26	12728	2	-4
CC(=CC(=O)O)CC[C@@]1(C)C(C)CC[C@@]2(C)C(C)=CCCC12 (stereo partly drawn)	9	2	-6.8	x	x	38	x
CCC1Sc2ccc(S(=O)(=O)CCC(=O)Nc3ccc(OC(F)(F)F)cc3)cc2NC1=O (stereo not drawn)	-11	-6	-5.4	-1	5797	-16	20
CC(C(C(=O)N1CCCCC1)N1CCCCC1)N1CCCCC1 (stereo not drawn)	17	6	2.6	-5	6522	1	x
Nc1ccccc1-c1nnc(-c2ccc(-c3ccccc3)cc2)o1	4	4	20	-47	7867	1	-9
Cc1ccc(N2CC(C(=O)NCc3cccs3)CC2=O)cc1C (stereo not drawn)	5	0	4.0	-11	u	0	3
COc1ccc(CC(=O)NCCCc2ccccc2)cc1OC	7	-4	1.4	-3	3295	4	-6

The last two records of the section above open the next one.
SMILES	Mtb hypoxia inh	Mtb hypoxia inh growth	Sa RN4220 lethal	PrP 5UTR inh	Autofluor counter	ugtP null kill	BJeLR lethal
Cc1ccc(N2CC(C(=O)NCc3cccs3)CC2=O)cc1C (stereo not drawn)	5	0	4.0	-11	u	0	3
COc1ccc(CC(=O)NCCCc2ccccc2)cc1OC	7	-4	1.4	-3	3295	4	-6
C=C(Cl)COc1ccc2c(CCC)cc(=O)oc2c1	x	x	9.0	-3	2649	1	-7
C/C(=C\c1ccccc1)CN1CCN(c2ccccc2F)CC1	-2	0	4.6	-18	10701	37	-6
Cc1ccc(CON=C2CCN(c3ncc(C(F)(F)F)cc3Cl)CC2)cc1	1	2	-3.4	-2	9790	69	4
Cc1ccc(N2CC(C(=O)OCC(=O)NNC(=O)c3ccccc3)CC2=O)cc1 (stereo not drawn)	-4	-6	2.2	-22	5323	8	-5
Cc1ccc(NC(=O)CN(C)CC(=O)Nc2ccc(N3CCOCC3)cc2)c([N+](=O)[O-])c1	6	5	5.7	-21	2593	5	-20
CN1CCN(C(=O)c2ccc3c(=O)n(Cc4ccco4)c(=S)[nH]c3c2)CC1	20	-2	-0.2	-24	3171	4	-19
CCN(CCNC(=O)c1cc(C)nn1-c1ccccc1)c1ccccc1	6	1	13	8	5980	11	15
Cc1ccc(C)c(NC(=O)CCC(=O)NNC(=O)c2cccs2)c1	x	x	x	-7	2510	x	-2
Cc1cc(-c2csc(NC(=O)c3ccc(S(=O)(=O)N(C)C)cc3)n2)c(C)n1-c1ccccc1	-5	3	-4.4	-8	2983	-7	13
CN1CCN(NC(=O)CN2C(=O)/C(=C/c3ccccc3F)SC2=S)CC1	-3	-1	1.7	x	x	-3	-3
Brc1ccc(CSc2ccc3nnc(-c4ccccn4)n3n2)cc1	13	4	1.0	-30	4499	8	-15
O=C(CN1CCN(c2ccccn2)CC1)Nc1ccc(Br)cc1	-6	-3	-2.3	x	3735	0	-1
CSCCC(NC(=O)c1ccccc1Cl)C(=O)NCC(c1ccc(F)cc1)N1CCOCC1 (stereo not drawn)	-8	3	2.6	-9	3464	4	x
COC(=O)c1ccc(N2CCN(S(=O)(=O)c3c(C)cc(C)cc3C)CC2)c([N+](=O)[O-])c1	3	7	2.5	-5	4028	4	4
Cc1noc(C)c1S(=O)(=O)N1CCC2(CC1)OCCO2	x	x	0.4	-6	3044	5	5
CC1=NNC(=O)/C1=C\c1cn(-c2ccccc2)nc1-c1cccs1	2	0	-4.2	-1	2462	-10	56*
COC(=O)c1ccc(CNC(=O)Cn2cnc3c(OCc4ccccc4)ncnc32)cc1	-10	8	5.7	-32	3768	3	x
O=C(CCC(F)(F)F)N1CCCC(N2CCN(c3cccc(Cl)c3)CC2)C1 (stereo not drawn)	x	x	x	-29	3738	x	-7
Cc1ccc(S(=O)(=O)Cc2ccc(C(=O)N3CCC4(CC3)OCCO4)o2)cc1	5	6	5.0	-21	20005*	4	-2
CCc1cccc(C)c1NC(=O)CO/N=C(\C)c1cc2ccccc2o1	x	x	x	-16	9591	x	-5
COC(=O)CSC1=C(C#N)C(c2ccc(C)o2)CC(=O)N1 (stereo not drawn)	15	-1	7.0	-21	5242	-2	1
CN1C(=O)C(=O)/C(=C(/O)c2ccccc2)C1c1ccccc1 (stereo not drawn)	10	0	3.3	-5	3041	4	-6
CCOC(=O)N1CCC(=NNS(=O)(=O)c2cccc([N+](=O)[O-])c2)CC1	1	7	8.2	-23	22772*	6	-26
CC(C)(CO)NCc1cccs1	9	5	3.7	-7	2503	8	2
CCOC(=O)/C=c1\s/c(=C\c2ccc3cc(OC)ccc3c2)c(=O)n1CC(=O)NCC1CCCO1 (stereo not drawn)	x	x	x	-3	2662	x	2

Later entries:
SMILES	Mtb hypoxia inh	Mtb hypoxia inh growth	Sa RN4220 lethal	PrP 5UTR inh	Autofluor counter	ugtP null kill	BJeLR lethal
C#CCOc1ccc(Cl)cc1/C=C1/C(=O)ON=C1C	0	7	2.6	x	3845	4	13
COc1ccccc1-c1nn(Cc2ccccc2)cc1/C=C/C(=O)O	2	-9	1.8	-18	5150	10	-3
O=C(CCCN1C(=O)/C(=C\c2cccs2)SC1=S)Nc1cccnc1	8	-1	3.0	-3	9615	2	-1
CCOc1ccc2nc(SCC(=O)N(CCOC)c3c(N)n(Cc4ccccc4)c(=O)[nH]c3=O)[nH]c2c1	-2	-3	0.9	-7	x	8	-1
COc1ccc2c(c1)c(C(=O)NN=Cc1ccc(OC)c(OC)c1)c(C)n2C	-3	2	-1.0	x	x	-4	x
O=C(O)c1ccccc1-c1cn2cc(Cl)ccc2n1	10	0	-0.9	-28	4308	-2	-1
CCn1cc([N+](=O)[O-])c(C(=O)Nc2ccn(Cc3ccccc3)n2)n1	6	8	3.3	-8	2434	3	-12
Clc1cccc(-c2nc(-c3ccccn3)no2)c1	4	5	5.5	47	3614	-1	5

Single records (already shown). Values in the order: Mtb hypoxia inh, Mtb hypoxia inh growth, Sa RN4220 lethal, PrP 5UTR inh, Autofluor counter, ugtP null kill, BJeLR lethal
`CCn1cc([N+](=O)[O-])c(C(=O)Nc2ccn(Cc3ccccc3)n2)n1` reads 6, 8, 3.3, -8, 2434, 3, -12
`Clc1cccc(-c2nc(-c3ccccn3)no2)c1` reads 4, 5, 5.5, 47, 3614, -1, 5
`O=C(CCCN1C(=O)/C(=C\c2cccs2)SC1=S)Nc1cccnc1` reads 8, -1, 3.0, -3, 9615, 2, -1

Rows are unselected; about 4% have a hit in one of these screens.
